Yeast UUG start = alters start codon recognition fidelity in yeast. activity score, % at 18.7 µM. 350,000 tested, 0.13% active. S. cerevisiae UUG-firefly luciferase reporter, luminescence/redox ratio;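 active = replicate mean at a twofold rise or more, about +100% in these data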;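 also: firefly luciferase made from a UUG start codon reports start codon fidelity; reporter light over untreated wells divided by growth signal over untreated wells; some hits fall short of that in this replicate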
Env fusion inh = inhibitors of HIV Env-mediated cell fusion; HeLa-JRFL Env/CEM21 cell fusion, luciferase; inhibition, % at 12.3 µM; 360,000 tested, 1.1% active; AID 651610;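 active = mean replicate inhibition score of at least 50 and every replicate individually at or above 50; inconclusive = only one of the two criteria met; inactive = mean below 50 and not all replicates reaching 50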;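 also: 0% = plate neutral controls and 100% = maraviroc near 300 nM; one replicate is shown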
* = called active by the depositor; ? = inconclusive; [ ] = dose if it differs, or a comment. The list is partial. The share of hits here may be higher or lower than overall.

compound	Yeast UUG start	Env fusion inh
CC(C)NC(=O)Nc1ccc2c(c1)CC(=O)N([C@H](C)CO)C[C@@H](C)[C@H](CN(C)C(=O)Nc1ccc(F)cc1)O2	-3	-16[16.7 µM]
C[C@@H]1CCCCO[C@H](CN(C)C(=O)NC2CCCCC2)[C@@H](C)CN([C@H](C)CO)C(=O)c2cc(NC(=O)c3ccncc3)ccc2O1	-7	-14[16.7 µM]
C[C@@H]1CCCCO[C@H](CN(C)S(C)(=O)=O)[C@@H](C)CN([C@H](C)CO)C(=O)c2cc(NS(=O)(=O)c3ccccc3)ccc2O1	7	-4[16.7 µM]
Cc1ccccc1-c1ccc2c(c1)O[C@H](CN(C)C(=O)Nc1ccccc1)[C@@H](C)CN([C@@H](C)CO)S2(=O)=O	-6	44[16.7 µM]
C[C@@H]1CCCCO[C@@H](CN(C)Cc2ccc3c(c2)OCO3)[C@H](C)CN([C@@H](C)CO)C(=O)c2cc(NC(=O)Nc3ccc(C(F)(F)F)cc3)ccc2O1	-2	39[16.7 µM]
COC(=O)C[C@@H]1CC[C@H]2[C@@H](COc3ccc(NC(=O)Nc4ccccc4C)cc3C(=O)N2C)O1	1	1[16.7 µM]
O=S(=O)(NC1CCN(Cc2ccc(OCCO)cc2)CC1)c1cccc2cccnc12	-9	0[16.7 µM]
C[C@@H]1CN([C@H](C)CO)C(=O)c2cccc(NS(=O)(=O)c3cn(C)cn3)c2O[C@H]1CN(C)S(=O)(=O)c1ccc(Cl)cc1	0	18[16.7 µM]
C[C@H]1CN([C@@H](C)CO)C(=O)c2cc(C3=CCCCC3)cnc2O[C@@H]1CN(C)C(=O)C1CCOCC1	-4	6[16.7 µM]
C/C=C/c1cnc2c(c1)C(=O)N([C@H](C)CO)C[C@H](C)[C@@H](CN(C)S(=O)(=O)c1ccc(OC)cc1)O2	-13	15[16.7 µM]
C[C@H](CO)N1C[C@H](C)[C@@H](CN(C)C(=O)Nc2ccc(F)cc2)Oc2ccc(NC(=O)Nc3ccc(C(F)(F)F)cc3)cc2CC1=O	-11	-5[16.7 µM]
C[C@H](CO)N1C[C@H](C)[C@H](CN(C)CC2CC2)Oc2cc(Br)ccc2S1(=O)=O	23	6[16.7 µM]

compound	Yeast UUG start	Env fusion inh
C[C@H]1CN([C@@H](C)CO)C(=O)c2cc(C#Cc3ccccn3)cnc2O[C@H]1CN(C)CC1CCOCC1	4	-17[16.7 µM]
Cc1ccc(-c2cnc3c(c2)C(=O)N([C@@H](C)CO)C[C@@H](C)[C@H](CN(C)C(=O)Cc2cccnc2)O3)cc1	-3	0[16.7 µM]
CS(=O)(=O)Nc1ccc2c(c1)[C@H]1C[C@H](CC(=O)NCc3cccnc3)O[C@@H](CO)[C@H]1O2	-10	-1[16.7 µM]
CCCC(=O)Nc1ccc2c(c1)C(=O)N(C)[C@@H]1CC[C@@H](CC(=O)NCCN3CCCCC3)O[C@@H]1CO2	15	19[16.7 µM]
Cc1noc(C)c1NC(=O)N(C)C[C@H]1Oc2ccc(NC(=O)NC(C)C)cc2CC(=O)N([C@@H](C)CO)C[C@H]1C	16	13[16.7 µM]
C[C@H](CO)N1C[C@H](C)[C@@H](CN(C)Cc2ccncc2)Oc2ccc(N(C)C)cc2C1=O	1	45[16.7 µM]
CC(=O)N(C)C[C@@H]1Oc2cc(C#CCN(C)C)ccc2S(=O)(=O)N([C@H](C)CO)C[C@@H]1C	-4	17[16.7 µM]
O=C(C[C@H]1C[C@@H]2c3cc(NC(=O)C4CCOCC4)ccc3O[C@@H]2[C@@H](CO)O1)NCC1CC1	9	4[16.7 µM]
O=C(CCN1CCCCC1)N[C@@H]1CC[C@H](CCNS(=O)(=O)c2ccc(Cl)cc2)O[C@H]1CO	0	4[16.7 µM]
C[C@@H]1CN([C@H](C)CO)S(=O)(=O)c2ccc(C#C[C@@H](C)O)cc2O[C@H]1CN(C)Cc1ccccn1	-7	2[16.7 µM]
COc1ccccc1-c1ccc2c(c1)O[C@@H](CN(C)C(C)=O)[C@@H](C)CN([C@H](C)CO)S2(=O)=O	-6	3[16.7 µM]
C[C@H]1CN([C@@H](C)CO)C(=O)c2cc(C3=CCCCC3)cnc2O[C@@H]1CN(C)Cc1ccccc1	1	9[16.7 µM]

compound	Yeast UUG start	Env fusion inh
CC(C)CC#Cc1cnc2c(c1)C(=O)N([C@@H](C)CO)C[C@@H](C)[C@@H](CN(C)Cc1ccccc1C(=O)O)O2	20	25[16.7 µM]
CNC(=O)C[C@@H]1CC[C@H]2[C@@H](COc3ccc(NC(=O)NC(C)C)cc3C(=O)N2C)O1	-18	-12[16.7 µM]
C[C@@H]1CN([C@@H](C)CO)C(=O)c2cc(NS(C)(=O)=O)ccc2O[C@@H](C)CCCCO[C@H]1CN(C)S(=O)(=O)c1cccs1	2	4[16.7 µM]
CCNC(=O)Nc1ccc2c(c1)C(=O)N(C)[C@H]1CC[C@@H](CC(=O)NCCN3CCCC3)O[C@H]1CO2	-7	-3[16.7 µM]
O=C(Nc1ccc2c(c1)[C@@H]1C[C@H](CC(=O)N3CCc4ccccc4C3)O[C@H](CO)[C@@H]1O2)Nc1ccccc1F	-4	4[16.7 µM]
C[C@@H]1CCCCO[C@H](CN(C)S(=O)(=O)c2ccc(F)cc2)[C@H](C)CN([C@H](C)CO)C(=O)c2cc(NS(=O)(=O)c3ccc(Cl)cc3)ccc2O1	10	29[16.7 µM]
COc1ccccc1C#Cc1ccc2c(c1)O[C@@H](CN(C)C(C)=O)[C@@H](C)CN([C@H](C)CO)S2(=O)=O	35	26[16.7 µM]
C[C@@H]1CCCCO[C@@H](CN(C)C(=O)NC2CCCCC2)[C@H](C)CN([C@@H](C)CO)C(=O)c2cc(NC(=O)CCCN(C)C)ccc2O1	12	-5[16.7 µM]
C[C@@H]1CN([C@@H](C)CO)C(=O)Cc2cc(N(C)C)ccc2O[C@@H]1CN(C)C(=O)Nc1ccc(C(F)(F)F)cc1	13	-17[16.7 µM]
COc1ccc(S(=O)(=O)N(C)C[C@@H]2OCCCC[C@@H](C)Oc3ccc(NC(=O)Nc4ccc(F)cc4)cc3C(=O)N([C@@H](C)CO)C[C@H]2C)cc1	-12	?
COc1ccccc1CNC(=O)C[C@@H]1CC[C@H](NC(=O)CC2CC2)[C@@H](CO)O1	-1	-2[16.7 µM]
CCCC(=O)Nc1ccc2c(c1)C(=O)N(C)[C@@H]1CC[C@H](CC(=O)N3CCc4ccccc4C3)O[C@H]1CO2	15	-11[16.7 µM]

compound	Yeast UUG start	Env fusion inh
Cc1ccc(S(=O)(=O)N[C@@H]2CC[C@H](CC(=O)NCCN3CCCCC3)O[C@H]2CO)cc1	-2	0[16.7 µM]
COc1ccc(-c2ccc([C@H]3[C@@H](C#N)N[C@@H]3CO)cc2)cc1	-10	-3[16.7 µM]
CCCNC(=O)N[C@@H]1CC[C@@H](CC(=O)NC2CCCCC2)O[C@H]1CO	-12	-1[16.7 µM]
CC(C)NC(=O)N(C)C[C@@H]1Oc2ccc(NC(=O)C3CCCCC3)cc2CC(=O)N([C@@H](C)CO)C[C@@H]1C	-2	18[16.7 µM]
O=C(C[C@H]1C=C[C@@H](NC(=O)Nc2ccccc2F)[C@@H](CO)O1)NCc1ccc(Cl)cc1	-2	72*[16.7 µM]
Cc1noc(C)c1S(=O)(=O)Nc1ccc2c(c1)C(=O)N([C@H](C)CO)C[C@H](C)[C@@H](CN(C)C(=O)Nc1ccccc1)OCCCC[C@H](C)O2	-6	-34[16.7 µM]
C[C@@H]1CN([C@H](C)CO)C(=O)c2cc(NS(=O)(=O)c3ccc(F)cc3)ccc2O[C@@H](C)CCCCO[C@H]1CN(C)S(=O)(=O)c1cccs1	-1	-90[16.7 µM]
O=C(CC1CC1)Nc1ccc2c(c1)[C@@H]1C[C@@H](CC(=O)NC3CCCC3)O[C@@H](CO)[C@@H]1O2	2	1[16.7 µM]
C[C@@H]1CN([C@@H](C)CO)C(=O)c2cc(-c3ccc(C#N)cc3)cnc2O[C@@H]1CN(C)C(=O)c1ccccc1	-1	13[16.7 µM]
COc1ccc(-c2cnc3c(c2)C(=O)N([C@@H](C)CO)C[C@H](C)[C@H](CN(C)S(C)(=O)=O)O3)cc1	-3	3[16.7 µM]
O=C(Nc1ccccc1F)N[C@@H]1CC[C@@H](CC(=O)N2CCCCC2)O[C@H]1CO	-6	-7[16.7 µM]
C[C@@H]1CN([C@@H](C)CO)C(=O)c2cc(C#CC3(O)CCCC3)cnc2O[C@@H]1CN(C)Cc1ccccc1	-6	-15[16.7 µM]

compound	Yeast UUG start	Env fusion inh
C[C@@H]1CCCCO[C@@H](CN(C)S(=O)(=O)c2ccc(F)cc2)[C@H](C)CN([C@H](C)CO)C(=O)c2cc(NS(C)(=O)=O)ccc2O1	14	21[16.7 µM]
N#C[C@H]1[C@H](c2ccc(C#CC3(O)CCCC3)cc2)[C@H](CO)N1C(=O)C1CCC1	17	-3[16.7 µM]
COc1cccc(C#Cc2ccc3c(c2)O[C@@H](CN(C)C)[C@@H](C)CN([C@@H](C)CO)S3(=O)=O)c1	6	10[16.7 µM]
CC(C)CC#Cc1cnc2c(c1)C(=O)N([C@H](C)CO)C[C@H](C)[C@H](CN(C)Cc1cncnc1)O2	-7	14[16.7 µM]
C[C@@H]1CN([C@@H](C)CO)C(=O)c2cc(C#CCN(C)C)cnc2O[C@H]1CN(C)Cc1cccc(C(=O)O)c1	0	-1[16.7 µM]
CC(C)NC(=O)Nc1ccc2c(c1)CC(=O)N([C@@H](C)CO)C[C@@H](C)[C@H](CN(C)S(C)(=O)=O)O2	-2	-3[16.7 µM]
Cc1ccc(S(=O)(=O)Nc2ccc3c(c2)C(=O)N([C@H](C)CO)C[C@H](C)[C@H](CN(C)CC2CCCCC2)OCCCC[C@H](C)O3)cc1	24	5[16.7 µM]
Cc1ccc(S(=O)(=O)N(C)C[C@@H]2OCCCC[C@H](C)Oc3ccc(NC(=O)c4ccccc4)cc3C(=O)N([C@H](C)CO)C[C@H]2C)cc1	3	29[16.7 µM]
C[C@H]1CN([C@@H](C)CO)C(=O)Cc2cc(NC(=O)CCCCCC(=O)Nc3ccccc3N)ccc2O[C@@H]1CN(C)C(=O)NC1CCCCC1	-4	0[16.7 µM]
CNC[C@@H]1Oc2c(NS(=O)(=O)c3cn(C)cn3)cccc2C(=O)N([C@H](C)CO)C[C@H]1C	-5	-9[16.7 µM]
CO[C@@H]1CN(C)C(=O)c2ccc(NC(=O)c3ccccn3)cc2OC[C@@H](C)N(C(=O)C2CCCCC2)C[C@H]1C	40	2[16.7 µM]
C[C@H](CO)N1C[C@H](C)[C@@H](CN(C)Cc2ccc3c(c2)OCO3)OCCCC[C@H](C)Oc2ccc(NS(=O)(=O)c3cn(C)cn3)cc2C1=O	6	-9[16.7 µM]

compound	Yeast UUG start	Env fusion inh
COCCNC(=O)C[C@@H]1C[C@@H]2c3cc(NC(=O)NC4CCCCC4)ccc3O[C@@H]2[C@H](CO)O1	17	11[16.7 µM]
C[C@@H]1CCCCO[C@H](CN(C)C(=O)Nc2ccc3c(c2)OCO3)[C@@H](C)CN([C@H](C)CO)C(=O)c2cc(NC(=O)Nc3ccc(F)cc3)ccc2O1	-21	-15[16.7 µM]
COc1ccc(-c2cn(CC[C@H]3CC[C@@H](NS(=O)(=O)c4ccccc4C)[C@@H](CO)O3)nn2)cc1	-9	2[16.7 µM]
CC(C)CC#Cc1cnc2c(c1)C(=O)N([C@H](C)CO)C[C@@H](C)[C@H](CN(C)S(=O)(=O)c1cn(C)cn1)O2	-4	0[16.7 µM]
C[C@H]1CN([C@@H](C)CO)C(=O)c2cc(NC(=O)C3CC3)ccc2O[C@@H]1CN(C)Cc1ccc(C(=O)Nc2ccccc2N)cc1	3	14[16.7 µM]
CCC(=O)N[C@@H]1C=C[C@@H](CC(=O)NCc2ccccc2OC)O[C@H]1CO	-5	-13[16.7 µM]
C[C@H](CO)N1C[C@H](C)[C@@H](CN(C)C(=O)c2ccccc2)OCCCC[C@H](C)Oc2ccc(NS(=O)(=O)c3ccc(F)cc3)cc2C1=O	20	-83[16.7 µM]
C[C@@H]1CN([C@@H](C)CO)C(=O)c2cc(NC(=O)Nc3cccc4ccccc34)ccc2O[C@@H](C)CCCCO[C@H]1CN(C)CC1CCCCC1	3	15[16.7 µM]
C[C@H](CO)N1C[C@H](C)[C@@H](CN(C)C(=O)C2CC2)Oc2ncc(-c3ccccc3F)cc2C1=O	-3	3[16.7 µM]
COc1ccc(S(=O)(=O)Nc2cccc3c2O[C@@H](CN(C)Cc2ccc(-c4ccccc4)cc2)[C@H](C)CN([C@H](C)CO)C3=O)cc1	-3	-1[16.7 µM]

Reformatted with values under each structure: entries from further up.
Every second line gives: Yeast UUG start	Env fusion inh
- COc1ccc(S(=O)(=O)Nc2cccc3c2O[C@@H](CN(C)Cc2ccc(-c4ccccc4)cc2)[C@H](C)CN([C@H](C)CO)C3=O)cc1
    -3	-1[16.7 µM]
- CC(C)CC#Cc1cnc2c(c1)C(=O)N([C@H](C)CO)C[C@@H](C)[C@H](CN(C)S(=O)(=O)c1cn(C)cn1)O2
    -4	0[16.7 µM]
- C[C@H]1CN([C@@H](C)CO)C(=O)c2cc(NC(=O)C3CC3)ccc2O[C@@H]1CN(C)Cc1ccc(C(=O)Nc2ccccc2N)cc1
    3	14[16.7 µM]
- COc1ccc(-c2cn(CC[C@H]3CC[C@@H](NS(=O)(=O)c4ccccc4C)[C@@H](CO)O3)nn2)cc1
    -9	2[16.7 µM]
- C[C@@H]1CCCCO[C@H](CN(C)C(=O)Nc2ccc3c(c2)OCO3)[C@@H](C)CN([C@H](C)CO)C(=O)c2cc(NC(=O)Nc3ccc(F)cc3)ccc2O1
    -21	-15[16.7 µM]
- COCCNC(=O)C[C@@H]1C[C@@H]2c3cc(NC(=O)NC4CCCCC4)ccc3O[C@@H]2[C@H](CO)O1
    17	11[16.7 µM]

Bioassay records deposited in PubChem BioAssay by Broad Institute.
